BmaI1 enzyme – BmaI1 acyl-homoserine lactone synthase inhibition – biochemical, fluorescence intensity, with counterscreen (AID 720554) | BmaI1 enzyme assay, fluorescence intensity; hits give high values; test concentration not given here; a few actives read low; strong numbers were not always called active | inhibition, % | hit rate 0.4% among 12,000;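 active = both replicates within 2 robust z-scores of the inhibited control and a quiet counterscreen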;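 note: 0% = uninhibited enzyme and 100% = inhibited control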
BmaI1 enzyme counterscreen – also measured in BmaI1 enzyme; calls as there; inhibition, %; measured here: counterscreen; design of the counterscreen not given here;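 first of two replicates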
* hit, by the source's call. These rows are one share of the data (hit frequency here may not be typical).

Second line of a record – BmaI1 enzyme, BmaI1 enzyme counterscreen
- CCCCn1c(N)c(N2CCN(Cc3ccccc3)CC2)c(=O)[nH]c1=O
    16, 14
- O=C(NCCCn1ccnc1)c1ccc(S(=O)(=O)Nc2ccccc2)cc1
    6, 5
- COc1ccccc1OCCC(=O)Nc1nc(C)cs1
    20, -1
- CON(C)c1nc(-c2cccnc2)nc2ccccc12
    11, 9
- Cn1ccnc1Sc1ccnc2cc(Cl)ccc12
    8, 8
- O=C(CN(CC(=O)Nc1ccc2c(c1)OCCO2)S(=O)(=O)c1ccccc1)Nc1ccc2c(c1)OCCO2
    15, 18
- O=C(c1ccccc1)N1CCN(c2ncccn2)CC1
    10, 6
- O=c1[nH]cnc2c1ncn2[C@H]1CC[C@@H](CO)O1
    0, -3
- CN(CC(=O)Nc1ccc(F)cc1)C(=O)CSc1nnc(Cc2ccccc2)o1
    8, 3
- CCn1nc(C(=O)N/N=C/c2cccc(OC)c2)c2ccccc2c1=O
    8, 7
- COC(=O)/C(=C(/O)CSc1nnc(-c2cccc(S(=O)(=O)N3CCCCC3)c2)o1)c1nc2ccccc2[nH]1
    8, -1
- CC1=NN(c2cccc(Cl)c2)C(=O)/C1=C\N1CCOCC1
    10, 8
- NC(=O)C1CCN(c2ncnc3sccc23)CC1
    4, 6
- CCN(CC)S(=O)(=O)c1ccc2c(c1)nc(CCC(=O)OCC(=O)c1ccc(Cl)s1)n2C
    13, 0
- O=C(CSc1ncn[nH]1)N1N=C2/C(=C/c3ccco3)CCCC2C1c1ccco1 (centres undefined)
    15, 12
- O=C(OCC(=O)N1c2ccccc2Sc2ccccc21)c1ccc(Br)o1
    9, 2
- CC(C)C(NC(=O)Cc1cccc2ccccc12)C(=O)N1CCN(c2ncccn2)CC1 (centres undefined)
    8, 8
- CC(=O)NCc1ccc(C(=O)COC(=O)CCc2c[nH]c3ccccc23)o1
    16, 4
- NS(=O)(=O)c1ccc(CCNC(=O)CSc2nc3ccc(Cl)cc3o2)cc1
    12, 2
- NS(=O)(=O)c1ccc(CCNC(=O)C2CCCC2)cc1
    5, -3
- CC(C)N1CC(=O)N(c2ccc(F)c(Cl)c2)C1=S
    31, 23
- O=C(Cn1nnc2ccccc2c1=O)NC(=O)Nc1ccccc1F
    17, 0
- C=CCn1c(SCC(=O)OC(C)(C)C)nc2scc(-c3ccco3)c2c1=O
    16, 9
- COc1cc(/C=N/S(=O)(=O)c2ccc(Br)cc2)cc(OC)c1O
    37, -7
- Cc1ccc(N2C(=O)/C(=C\c3ccc4c(c3)OCO4)N=C2SC2CCOC2=O)cc1 (centres undefined)
    -4, -10
- O=C(OCc1ccc(Cl)cc1)c1ccc2c(c1)C(=O)N(CCCN1CCOCC1)C2=O
    36, 6
- COc1ccc(C2CC(c3ccccc3)=NN2C(=O)COC(=O)c2ccco2)cc1 (centres undefined)
    18, 10
- Cn1ccnc1-c1nc2ccccc2n(CC(=O)O)c1=O
    12, 12
- CCSc1nnc(-c2cccc(S(=O)(=O)N3CCOCC3)c2)n1-c1ccc(F)cc1
    9, 0
- N#Cc1ccc(C(=O)NCC2CCCCC2)cc1
    5, 10
- CN(C(=O)COC(=O)c1ccc2c(=O)n3c(nc2c1)CCCCC3)C1(C#N)CCCCC1
    14, 2
- Cc1cnc(NC(=O)C2=C(O)c3ccccc3S(=O)(=O)N2C)s1
    -1, 1
- c1ccc(C2=Nn3cc(-c4ccccc4)nc3SC2)cc1
    24, 12
- Cc1ccc(C(=O)OCC(=O)c2ccc(S(=O)(=O)N3CCCCC3)cc2)o1
    19, 14
- CC(C)c1ccc(-c2noc(COC(=O)c3ccc(S(=O)(=O)NCCC#N)cc3)n2)cc1
    0, -8
- O=C(O)C(Cl)Cl
    4, -2
- CCC(C)NC(=O)c1ccc2c(c1)[nH]c(=O)c(=O)n2CC (centres undefined)
    10, 16
- CCC1CCCCN1CC(O)COCc1cccc(OC)c1 (centres undefined)
    -10, -1
- N#CCCSc1nnc(-c2ccc(Cl)cc2)o1
    0, 2
- COc1ccc(C)cc1-n1nnnc1SC(C)C(=O)NCc1ccco1 (centres undefined)
    -6, -2
- CCN(CC)c1nc(C(=O)Nc2ccc(Br)cc2)cs1
    20, 16
- CN=C(NC#N)NCCSCc1nc[nH]c1C
    2, 25
- CC(Oc1ncnc2ccccc12)C(=O)Nc1ccccc1F (centres undefined)
    8, -2
- O=c1[nH]nc(-c2nnc3n2-c2ccccc2SC3)c2ccccc12
    3, 2
- Cc1cc(-c2csc(-c3cccnc3)n2)c(C)n1C
    23, 6
- C#CCN=Cc1c(O)[nH]c(=O)[nH]c1=O
    8, 1
- CC(=O)Nc1ccc(NC(=O)C(C)OC(=O)C2CCN(C(=O)Nc3ccccc3)CC2)cc1 (centres undefined)
    15, 10
- O=c1c(O[C@@H]2O[C@H](CO)[C@@H](O)[C@H](O)[C@H]2O)c(-c2ccc(O)c(O)c2)oc2cc(O)cc(O)c12
    58, 21
- Cc1ccc(OCc2nc(SCC(=O)N3CCc4ccccc43)n[nH]2)cc1
    10, 3
- c1ccc(COc2ccc(Oc3cnccn3)cc2)cc1
    13, 14
- Cc1cccc(C)c1NC(=S)N1CCCCC1CO (centres undefined)
    46, 4
- CC(C)C(=O)c1cccs1
    6, 0
- Cc1csc(SCC(=O)NCc2cccs2)n1
    24, 1
- O=C(COC(=O)C1CC2CCCC(C1)C2=O)c1ccc(CC(=O)N2CCOCC2)s1 (centres undefined)
    11, 3
- COC(=O)C1=C(C)NC(C)=C(C(=O)OC)C1C(=O)OCCCn1c(=O)[nH]c2ccccc21
    12, 8
- COc1cc2ccccc2cc1C(=O)NCC(F)(F)F
    8, -2
- Brc1csc(CNCCc2ccco2)c1
    8, 2
- CCc1nnc(NC(=O)Cc2ccsc2)s1
    18, 3
- COc1ccc(C2=NN(C(=O)COC(=O)c3ccc4c(c3)C(=O)N(CCC(C)C)C4=O)C(c3ccco3)C2)cc1 (centres undefined)
    -7, -4
- Cc1ccc(C)c(C(C)NC(=O)Cc2c(C)noc2C)c1 (centres undefined)
    -8, -10

In another format: results already given.
> CC(Oc1ncnc2ccccc12)C(=O)Nc1ccccc1F (centres undefined)
  BmaI1 enzyme: 8	BmaI1 enzyme counterscreen: -2
> O=c1[nH]nc(-c2nnc3n2-c2ccccc2SC3)c2ccccc12
  BmaI1 enzyme: 3	BmaI1 enzyme counterscreen: 2
> Cc1cc(-c2csc(-c3cccnc3)n2)c(C)n1C
  BmaI1 enzyme: 23	BmaI1 enzyme counterscreen: 6
> C#CCN=Cc1c(O)[nH]c(=O)[nH]c1=O
  BmaI1 enzyme: 8	BmaI1 enzyme counterscreen: 1

Going on with the list:
| SMILES | BmaI1 enzyme | BmaI1 enzyme counterscreen |
| --- | --- | --- |
| Cc1nn(-c2ccccc2)c(C)c1CN(C)C(=O)c1cc(C2CC2)nn1-c1ccccc1 | 16 | 6 |
| Cc1cc(N)nc(=S)[nH]1 | -32 | 22 |
| N#Cc1ccc(COC(=O)CC2CCS(=O)(=O)C2)cc1 (centres undefined) | 8 | 0 |
| CCn1c(CSc2nc3ccc(C)cc3[nH]2)nc2cc(S(=O)(=O)N(C)C)ccc21 | 20 | 8 |
| O=C(O)c1ccc2c(c1)OCCCO2 | 6 | 7 |
| CC(C(=O)NCc1ccccc1)N1CCc2ccccc2C1 (centres undefined) | -1 | -6 |
| COc1cc(Cl)c(C)cc1NCC(=O)N1CCOCC1 | -2 | -9 |
| Cc1noc(C)c1COC(=O)c1ccc2[nH]c3c(c2c1)CCCC3 | 14 | -4 |
| CNCc1ccc(C)cc1C | 5 | 8 |
| O=C(O)Cc1cc2c(cc1Br)OCCO2 | 12 | 6 |
| Cn1cnnc1Sc1ccc(Cl)cc1NC(=O)c1cc2ccccc2o1 | 31 | 12 |
| Nc1ncnc2c1ncn2C1CCC(CO)C(O)C1 (centres undefined) | 10 | 6 |
| NC(=S)c1ccsc1 | 17 | 8 |
| CC(Oc1ccccc1)C(=O)OCc1nnc(-c2ccc(F)cc2)o1 (centres undefined) | 9 | 6 |
| NC(=O)COC(=O)c1ccc(Oc2ccccc2)cc1 | -5 | -4 |
| O=C(c1ccccc1)N1CCN(C(=O)c2ccc(OC(F)(F)F)cc2)CC1 | 0 | 6 |
| N#Cc1ccccc1OCC(=O)c1cccs1 | 4 | 1 |
| Oc1c(C(c2cccnc2)N2CCOCC2)ccc2cccnc12 (centres undefined) | 105* | 28* |
| CCCCNc1cc(C(=O)O)cc(S(N)(=O)=O)c1Oc1ccccc1 | 60 | 20 |
| CCOc1ccc2nc(NC(=O)C3=NNC(=O)CC3)sc2c1 | 10 | 10 |
| CCOc1ccc(NC(=O)CNc2ccc(S(=O)(=O)N(C)C)cc2)cc1OCC | 2 | 8 |
| CCOC(=O)N1CCN(C(=O)CNC2CCCC(C)C2C)CC1 (centres undefined) | 7 | 1 |
| O=C(O)CCN1c2cccc3cccc(c23)S1(=O)=O | 22 | 18 |
| Clc1nc(-c2cccs2)nc2ccccc12 | 2 | 2 |
| CCc1nc2ccccc2n1C(=O)c1cc2c(C)nn(-c3ccc(Cl)cc3)c2s1 | 13 | 16 |
| CN(Cc1cccc(F)c1)C(=O)COC(=O)c1ccc2c(c1)NC(=O)CS2 | 24 | 1 |
| CC1CCc2c(sc3ncnc(NS(=O)(=O)c4cccs4)c23)C1 (centres undefined) | 22 | 12 |
| Cc1nc(NC2CC2)c2c3c(sc2n1)CCC3 | 16 | 7 |
| COc1cccc(-n2c(CC(=O)NN)csc2=NCc2ccco2)c1 | 38 | 18 |
| O=C1CCC(C(=O)OCC(=O)Nc2ccc(F)cc2)=NN1 | 12 | 12 |
| O=C1c2ccccc2C(=O)c2c1oc1c3c(ccc21)OCN(C1CCCC1)C3 | 18 | 3 |
| Cn1c(N)nc(N)c(N)c1=O | 40 | 14 |
| CCOC(=O)c1c(C)oc(NC(=O)COC(=O)COc2ccc3c(c2)CCC3)c1C#N | 10 | 4 |
| O=C(COC(=O)CSc1nnc(-c2ccc(Cl)cc2)o1)NC1CCS(=O)(=O)C1 (centres undefined) | -4 | -6 |
| Cc1nn(-c2ccccc2)c(C)c1NC(=O)COC(=O)/C=C/c1cccs1 | 22 | -1 |
| Cc1nn(-c2ccccc2)nc1C(=O)OCc1ccc(C#N)cc1 | 11 | 12 |
| N#Cc1cccc(NC(=O)CNc2ccccc2Cl)c1 | 9 | 4 |
| C=CCn1c(C)cc(C(=O)CSc2nc3ccccc3c(=O)n2CC=C)c1C | 8 | 0 |
| O=C(Cc1n[nH]c(=O)c2ccccc12)OC1CCOC1=O (centres undefined) | 10 | 0 |
| C=CCn1c(SCC#N)nnc1-c1ccc(Br)cc1 | 10 | 2 |
| COc1ccc(-c2nnc(SCC(N)=O)n2C2CCCCC2)cc1OC | 6 | 3 |
| O=C(N/N=C1/CCS(=O)(=O)c2ccc(F)cc21)c1ccccn1 | 16 | -3 |
| Cc1ccccc1-n1nnnc1SCC(=O)N/N=C/c1ccccc1O | -8 | -30 |
| Cc1ccc(NC(=O)CSc2ncn(-c3ccccc3)n2)cc1 | 16 | 6 |
| Cn1c(C(C#N)C(=O)c2ccc(Cl)c(S(=O)(=O)N3CCCCCC3)c2)nc2ccccc21 (centres undefined) | 15 | 4 |
| C=CCn1c(SCC(=O)N(C)C2CCS(=O)(=O)C2)nc2ccccc2c1=O (centres undefined) | 18 | 10 |
| COc1ccc2oc(C(=O)OCC(=O)c3ccc(F)cc3)c(C)c2c1 | -8 | -5 |
| CCOc1ccc(S(=O)(=O)N2CCN(C(=O)CNC(=O)c3cccs3)CC2)cc1 | 2 | -4 |
| Cc1ccn2nc(C(=O)OCc3cc(=O)oc4cc5c(cc34)CCC5)nc2n1 | 12 | 10 |
| CN(Cc1ccccc1)Cn1c(=S)oc2ccc(Cl)cc21 | 21 | 10 |
| CCOc1ccc(C(=O)NCC(=O)NCC2CCCCC2)cc1OCC | 4 | 6 |
| Cc1cc(C)nc(SCC(=O)OCc2cccc(S(=O)(=O)N3CCOCC3)c2)n1 | 14 | 14 |
| COC(=O)c1ccc(COC(=O)c2cccnc2N)o1 | 6 | 4 |
| CC1CCCN(C(=O)COC(=O)c2ccc(N(C)C)cc2)C1 (centres undefined) | 3 | -10 |
| N#Cc1ccc(NC(=O)Cc2ccc3c(c2)OCCO3)cc1 | 17 | 18 |
| CN(C)C(CN)Cc1ccccc1 (centres undefined) | -6 | -3 |
| C/C=C/c1c(F)c(F)c(Oc2ccccc2N)c(F)c1F | 17 | 4 |
| O=C(CSc1nnc(-c2ccco2)n1Cc1ccccc1)OCC(=O)c1c[nH]c2ccccc12 | 26 | 16 |
| COc1cc(CC(=O)N=c2sc3ccccc3n2C)cc(OC)c1OC | 6 | 10 |
| COc1cc(CN(C)Cc2cc3c(cc2O)OCO3)ccc1OC(F)F | 78 | 14 |

Going on with the list:
| SMILES | BmaI1 enzyme | BmaI1 enzyme counterscreen |
| --- | --- | --- |
| O=c1[nH]c2ccc(Nc3nc(CN4CCOCC4)nc4scc(-c5cccs5)c34)cc2[nH]1 | 42 | 56 |
| O=C(Nc1ccc(S(=O)(=O)NC2=NCCCCC2)cc1)C1COc2ccccc2O1 (centres undefined) | 14 | 4 |
| CCCn1c(NC(=O)CN2C(=O)C3C4C=CC(C4)C3C2=O)nc2ccccc21 (centres undefined) | 12 | 2 |
| Cc1ccc(C)c(S(N)(=O)=O)c1 | 8 | 6 |
| COc1cc(OC)c(OC)cc1/C=N/NC(N)=O | 8 | 18 |
| Nc1nn2c([n+]1N)N=C(c1ccccc1)C2 | 14 | 12 |
| O=S(=O)(c1ccc(NC2CCN(Cc3ccccc3)CC2)nc1)N1CCCCC1 | 36 | 0 |
| O=C(CCc1cccs1)NC1=NCCS1 | 1 | 14 |
| CC[C@]1(O)CC[C@H]2[C@@H]3CCC4=CCCC[C@@H]4[C@H]3CC[C@@]21C | 11 | 14 |

Assay outcomes deposited in PubChem BioAssay by ICCB-Longwood Screening Facility, Harvard Medical School.
